Yeast UUG start: modulators of yeast start codon fidelity, primary screen, whole organism, S. cerevisiae, single point, plate reader | S. cerevisiae UUG-firefly luciferase reporter, luminescence/redox ratio | activity score, % at 18.7 µM | 0.13% of 350,000 active | AID 602363, 2012;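 active means replicate mean at a twofold rise or more, about +100% in these data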;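 further: firefly luciferase made from a UUG start codon reports start codon fidelity; reporter light over untreated wells divided by growth signal over untreated wells; some hits fall short of that in this replicate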
HIV Env fusion: inhibitors of HIV-1 Env-driven cell-cell fusion, primary screen, HeLa-JRFL effector, CEM21 target cells, luciferase; inhibition, % at 12.3 µM; 1.1% of 360,000 active; AID 651610, 2012;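 active means mean replicate inhibition score of at least 50 and every replicate individually at or above 50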;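 further: 0% = plate neutral controls and 100% = maraviroc near 300 nM; one replicate is shown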
PABP FP inh: PABP poly(A) RNA binding inhibitors, primary screen, biochemical, fluorescence polarization, uHTS. AID 2014, 2009. 1% of 290,000 active. inhibition, % at 35 µM. Polyadenylate-binding protein 1 (Homo sapiens), P11940;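 active means 50% or more with normal probe brightness, or confirmed in later tests; about a fifth of its hits are not listed in these tables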;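 further: calls also rest on retests at 20 µM and on dose response follow-up; controls were probe without protein and protein plus probe with vehicle; some compounds called inactive have numbers as strong as hits; many hits fall short of the cut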
eIF4H FP inh: human eIF4H binding inhibitors, primary screen, translation initiation inhibitor project, biochemical, uHTS, fluorescence polarization | eIF4H fluorescence polarization binding assay | inhibition, % at 35 µM | Eukaryotic translation initiation factor 4H (Homo sapiens), Q15056 | AID 2012, 2009 | 0.94% of 290,000 active;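 active means 50% or more with normal probe brightness, or confirmed in later tests; about a fifth of its hits are not listed in these tables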;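 further: calls also rest on retests at 20 µM and on dose response follow-up; 0% = protein and probe with vehicle and 100% = probe without protein; strong numbers were not always called active; many hits fall short of the cut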
Rce1 inh: yeast Rce1p protease inhibitors, primary screen, biochemical, fluorescence, cell-free homogeneous | CAAX prenyl protease 2 (Saccharomyces cerevisiae (strain ATCC 204508 / S288c)), Q03530 | yeast membranes, quenched prenylated peptide cleavage fluorescence | calls only | 0.27% of 290,000 active;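 active means fall in fluorescence gain of 50% or more versus controls, with final raw signal at or below 3038400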;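 further: plate controls were neutral control wells for no effect and wells lacking membranes for full effect; tested at 10 µM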
Target sequence (Q03530 whole entry, looked up): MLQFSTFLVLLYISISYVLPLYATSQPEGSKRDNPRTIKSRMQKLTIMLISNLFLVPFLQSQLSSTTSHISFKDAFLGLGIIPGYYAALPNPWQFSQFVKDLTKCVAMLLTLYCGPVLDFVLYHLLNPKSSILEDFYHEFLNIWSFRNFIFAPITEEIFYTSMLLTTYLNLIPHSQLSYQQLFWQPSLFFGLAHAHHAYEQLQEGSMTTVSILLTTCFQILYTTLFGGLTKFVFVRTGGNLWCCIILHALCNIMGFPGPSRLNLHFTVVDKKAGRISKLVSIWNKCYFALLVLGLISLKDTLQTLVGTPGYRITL
CSC inhib: cancer stem cell viability inhibitors, primary screen, luminescence; inhibition, % at 7.5 µM; AID 2717, 2010; 1.1% of 300,000 active; cancer stem cell-like cells viability;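 active means mean at 75% or more and at least half the replicates too; tested in HMLE shEcad cells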;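 further: 0% = median of negative and 100% = median of positive control wells; the first replicate is given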
MT1-MMP act inh: blockers of MT1-MMP proenzyme processing, primary screen, HT1080 RFP-PRO-GFP cells, GFP/RFP fluorescence | GFP/RFP ratio fluorescence, overnight; percent of plate control window, DMSO zero | AID 651647, 2012 | 0.061% of 360,000 active | GFP/RFP ratio change, % at 20 µM;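 active means GFP/RFP ratio change of at least 30% with cell ATP level not reduced by more than half and red fluorescence within 50% of control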; further: strong numbers were not always called active
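Assay system: HT1080 cells carrying an RFP-PRO-GFP reporter | Dosing: Single dose of 20 µM compound, 1% DMSO final | Incubation: Cells overnight before dosing, compound overnight, 37 °C, 5% CO2 | Evaluation: GFP/RFP fluorescence ratio | Control set: DMSO and RFP-L50D-GFP cell wells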
eIF4H FP inh retest: further read-out of eIF4H FP inh, marked with its call; inhibition, %; compound at 20 µM; confirmation average;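 mean of two retest wells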
PABP FP inh retest: also measured in PABP FP inh; calls as there; inhibition, %; compound at 20 µM; confirmation repeats;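 mean of two retest wells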
MT1-MMP act inh RFP: also measured in MT1-MMP act inh; calls as there; RFP signal change, %; measured here: RFP expression control read;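 0 = vehicle wells; hits needed this value within 50% of zero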
Active calls of the source: *; i = inactive; / = not tested or not shown.

Start of the listing, in advance (2 entries):
SMILES | Yeast UUG start | HIV Env fusion | PABP FP inh | eIF4H FP inh | Rce1 inh | CSC inhib | MT1-MMP act inh | MT1-MMP act inh RFP | others
COc1ccccc1C(=O)N/C(=N/c1nc(C)cc(C)n1)Nc1ccccc1 | / | 10 | 5 | -1 | i | -9 | -4 | -7
Cc1cc(NC(=O)CCc2ccccc2)c([N+](=O)[O-])cc1C | -7 | -10 | 45 | -8 | i | 0 | 0 | -2

Results, previewed entries included:
SMILES | Yeast UUG start | HIV Env fusion | PABP FP inh | eIF4H FP inh | Rce1 inh | CSC inhib | MT1-MMP act inh | MT1-MMP act inh RFP | others
COc1ccccc1C(=O)N/C(=N/c1nc(C)cc(C)n1)Nc1ccccc1 | / | 10 | 5 | -1 | i | -9 | -4 | -7
Cc1cc(NC(=O)CCc2ccccc2)c([N+](=O)[O-])cc1C | -7 | -10 | 45 | -8 | i | 0 | 0 | -2
Cn1cnc2cc(NS(=O)(=O)c3ccc(Br)cc3)ccc21 | 12 | / | -9 | -2 | / | -10 | 0 | 4
Cc1ccc(COCC(CC(C)C)N2CCN(C(=O)c3cccc(C(F)(F)F)c3)CCC2=O)cc1 (stereo unspecified) | 12 | -28 | 98 | -10 | i | -4 | 1 | -11 | eIF4H FP inh retest=45;PABP FP inh retest=2
COc1cc2c(cc1OC)CN(C(=O)CN1CCN(S(=O)(=O)c3ccccc3Br)CC1)CC2 | -2 | -4 | 6 | 9 | i | -5 | 5 | 4
O=C(CSc1nc(-c2ccccc2)cc(=O)[nH]1)Nc1ccccn1 | -10 | / | 13 | -3 | i | -1 | -1 | -1
Cc1ccc(S(=O)(=O)N2CCN(C(=O)COC(=O)c3ncc(Cl)c(Cl)c3Cl)CC2)c(C)c1 | -13 | 0 | / | / | / | / | 3 | -1
Cc1ccc(SCc2cn3cccnc3n2)cc1 | -12 | / | 1 | -13 | i | -7 | 1 | -2
CC(C)CNS(=O)(=O)c1cc(C(=O)OCC(=O)c2ccc3c(c2)OCCO3)c(Cl)cc1Cl | / | -3 | 0 | -6 | i | 7 | 4 | 3
CCCN(CCC)S(=O)(=O)c1ccc(C(=O)NCc2ccc3c(c2)OCO3)cc1 | -17 | 1 | -2 | -2 | i | 0 | 4 | -2
CCCCN(CC)C(=O)C1CCC(=O)N(c2ccc(OC)cc2)C1c1ccc(OC)c(OC)c1 (stereo unspecified) | 11 | / | / | / | / | -19 | -2 | 7
O=C(NNC(=S)Nc1ccccc1C(F)(F)F)c1ccc(Br)o1 | / | -6 | -2 | 7 | / | 12 | 1 | 0
COc1ccccc1CCN1CCCC(CN(C)C(=O)c2ccc3nc[nH]c3c2)C1 (stereo unspecified) | -16 | -16 | -10 | -10 | i | 14 | -4 | 2
Cc1cccc2cc(CN(C(=O)c3cccs3)c3ccccc3)c(=O)[nH]c12 | / | / | -1 | 4 | i | / | -2 | -3
C=CCNC(=S)NNC(=O)c1ccc(OCC)cc1 | -2 | / | -8 | -1 | i | -18 | 6 | 2
COC(=O)c1ccc2nc(-c3cccc(Cl)c3)c(Cc3ccccc3OC)n2c1 | 6 | 23 | / | / | / | / | -3 | -4
CCN(CC)S(=O)(=O)c1csc(C(=O)NC2CCCCC2)c1 | -48 | -27 | -3 | 5 | i | 1 | 0 | 6
COc1ccccc1NC(=O)c1ccc(NC(=O)c2ccc(=O)[nH]c2)cc1 | -10 | -21 | / | / | / | -16 | -2 | -2
CC(C)(Nc1ccccc1)C(=O)c1ccccc1 | -20 | / | 8 | -3 | i | 7 | 1 | 1
O=S(=O)(c1ccc2nnn(OCc3ccccc3)c2c1)N1CCOCC1 | 4 | 3 | / | / | i | 2 | 4 | -2
COc1ccc(S(=O)(=O)Nc2ccc(F)cc2F)cc1C(=O)N1CCOCC1 | -12 | -3 | 4 | 1 | i | 4 | -2 | 1
Cc1cccc(NC(=O)CN(C)S(=O)(=O)c2ccc(Cl)cc2)n1 | -17 | -16 | -2 | 0 | i | -1 | -1 | -1
CCOc1ccc(S(=O)(=O)n2ccnc2)c2ccccc12 | -3 | -11 | 1 | 0 | i | -3 | 1 | 8
Cc1ccc(S(=O)(=O)N[C@@H](CO)C(=O)N[C@@H](Cc2ccc(O)cc2)C(=O)O)cc1 | -21 | 19 | 8 | -1 | i | -3 | -2 | 2
COc1ccc(CSc2nncn2N)cc1[N+](=O)[O-] | / | / | 18 | -2 | i | -9 | -2 | 3
CN1c2ccsc2C(=O)/C(=C\Nc2cccc(C(F)(F)F)c2)S1(=O)=O | -25 | -6 | 8 | -3 | i | -7 | 0 | 5
CCOC(=O)c1cnc(-n2nc(C)cc2C)nc1Nc1ccc(N(C)C)cc1 | -37 | 27 | 3 | -7 | i | 20 | -5 | -15
O=C(O)c1c2c(nc3ccc(S(=O)(=O)N4CCC(C(=O)NCc5ccccc5)CC4)cc13)CCCC2 | -4 | -11 | / | / | / | / | -8 | 0
Cc1ccnc2c(N3C(=O)C4C5c6ccccc6C(c6ccccc65)C4C3=O)cccc12 (stereo unspecified) | -4 | 51 | 4 | 8 | i | 7 | -4 | -10
CCOC(=O)c1ccc(NC(=O)NC2CCN(CC(=O)NCc3ccc4c(c3)OCO4)CC2)cc1 | -8 | -6 | -14 | 2 | i | -10 | 9 | -2
CCCOc1ccc(C2C(C#N)=C(N)Oc3nc[nH]c(=O)c32)cc1OC (stereo unspecified) | -12 | -29 | 1 | -1 | i | -14 | -2 | -4
NC(=O)C1CCN(c2ccnc3cc(Cl)ccc23)CC1 | / | -23 | -10 | -13 | i | -13 | 0 | 1
CN(C)c1cccc(C(=O)NC2CCCc3ccccc32)c1 (stereo unspecified) | -3 | -5 | 2 | -7 | / | -4 | -1 | -3
CC1(C)C=C2C(=NN(c3ccccc3)C(N)=C2C#N)CO1 | -19 | -3 | 19 | 8 | i | -5 | -2 | 4
CCOC(=O)c1c(NC(=O)CSc2nc3ccc(OC)cc3[nH]2)sc2c1CC(C)(C)NC2(C)C | -17 | -14 | / | / | i | -6 | -6 | -11
O=C(NCc1ccco1)C1CCN(Cc2ccc(F)cc2)CC1 | -7 | / | 24 | -5 | i | 16 | 5 | 9
Fc1ccc(-c2ccc3c(c2)C2CC3CCN2Cc2ccc3c(c2)OCO3)cc1 (stereo unspecified) | 8 | 3 | / | / | / | / | 1 | 3
CC1S/C(=N/N=C/c2cccc([N+](=O)[O-])c2)NC1=O (stereo unspecified) | / | -4 | -2 | 1 | i | 88* | -1 | -1
CCNS(=O)(=O)c1ccc(NC(=O)c2cncc(Br)c2)cc1 | / | 0 | -5 | -8 | i | 0 | 0 | 1
COc1ccc(CCN=C(N)NS(=O)(=O)c2ccc(C)c(C)c2)cc1 | / | -3 | 7 | 1 | i | -1 | -3 | -2
C(=N\Nc1nc2ccccc2s1)/c1ccc2c(c1)OCO2 | / | / | -4 | -2 | i | / | -5 | -3
O=C1c2ccccc2C(=O)N1C1C=CC=CC=C1 | -16 | -10 | / | / | / | / | 2 | 2
O=C(c1cc2ccccc2oc1=O)N(c1ccccc1)C1C=CS(=O)(=O)C1 (stereo unspecified) | / | -2 | -22 | -2 | i | -1 | -1 | -2
CCCCCCCC(O)CC(CC1CCCCC1)C(=O)NN (stereo unspecified) | / | 11 | -11 | -19 | i | 7 | 11 | -4
Cc1ccc(-c2c(C)nn3c(N4CCOCC4)cc(C)nc23)cc1 | 3 | 17 | 2 | -14 | i | -13 | -1 | -2
O=S(=O)(c1cccc(Br)c1)N1CCN(c2ccnc3cc(Cl)ccc23)CC1 | 9 | 37 | -11 | -17 | i | 28 | 1 | -8
COc1ccc(C(C(=O)NC(C)(C)C)N(Cc2ccc(C)cc2)C(=O)CCC(=O)Nc2cc(C)on2)cc1 (stereo unspecified) | / | 12 | 10 | -4 | i | 5 | -2 | 2
CC(NCC(=O)Nc1ccccc1C(=O)NC1CC1)c1ccc(Cl)cc1 (stereo unspecified) | -18 | 6 | / | / | / | / | -2 | -2
c1ccc(CN2CCC(N3CCC(N4CCCCCC4)CC3)CC2)cc1 | -5 | / | 39 | 10 | / | 1 | 3 | 4
CCOc1ccc(N2CCc3c(C)nc(SC)nc32)cc1 | -13 | -51 | -8 | -1 | i | 41 | -1 | -5
CN(C)c1ccc(NC(N)=S)cc1 | / | -6 | -2 | -1 | i | -11 | 2 | 2
CC(C)c1ccc(NC(=S)N2CCN(Cc3ccccc3)CC2)cc1 | -18 | 8 | 5 | 2 | i | 9 | -1 | 1
NC(=O)c1ccc(NC(=O)c2cccc(Oc3ccccc3)c2)cc1 | -16 | 18 | -6 | -12 | i | / | 6 | 1
CC1(C)N=C(N)N=C(N)N1c1cc(Cl)ccc1Cl | -12 | -6 | / | / | / | / | -4 | -2
Cn1c(N)c(C(=O)COC(=O)CC(NC(=O)c2ccccc2Cl)c2ccccc2)c(=O)n(C)c1=O (stereo unspecified) | / | -4 | 3 | 7 | i | 14 | -1 | 4
CC(=O)Nc1nc(CC(C)C)cc(-c2ccccc2)c1C#N | / | 5 | -1 | 2 | i | -2 | 2 | -2
O=C(CCCN1C(=O)c2cccc3cccc(c23)C1=O)Nc1nccs1 | -10 | 1 | 16 | 48 | i | -9 | -1 | 0
CCC(Oc1ccccc1)C(=O)NCc1cccnc1 (stereo unspecified) | -19 | -15 | -7 | -7 | i | / | 2 | 1
Cc1cccc(N(C(=O)c2cnc3n(c2=O)CCS3)C2CCCCC2)c1 | -6 | / | -13 | 2 | i | / | 1 | -1
Cc1cccc(C2(c3cccc(C)c3)OC(=O)c3ccccc32)c1 | -2 | -1 | 2 | 4 | i | 25 | / | /

Additional entries.
SMILES | Yeast UUG start | HIV Env fusion | PABP FP inh | eIF4H FP inh | Rce1 inh | CSC inhib | MT1-MMP act inh | MT1-MMP act inh RFP | others
O=C(O)CC(NC(=S)NCc1ccccc1)C(=O)O (stereo unspecified) | -22 | / | -4 | -8 | i | 14 | -3 | 0
O=C(NC1CC2CCCC(C1)N2Cc1ccc(F)cc1)c1ccc(F)cc1 (stereo unspecified) | -26 | 8 | 0 | -2 | i | -7 | 0 | 4
Cc1ccc(C)c(OC(=O)c2ccncc2)c1 | -18 | 24 | 11 | -8 | i | 1 | -11 | 2
O=C(Nc1ccc2c(c1)OCO2)N1CCN(c2cccc(C(F)(F)F)c2)CC1 | -9 | -4 | 0 | -12 | i | 27 | 6 | -1
C=CCN1C=C2C(=O)C(C)(OC(=O)CC)C(=O)C=C2C=C1CCCC (stereo unspecified) | -23 | 3 | 42* | 83 | i | -2 | -2 | 2 | eIF4H FP inh retest=26;PABP FP inh retest=68*
O=C(NNC1OC(CO)C(O)C(O)C1O)c1cccc(Br)c1 (stereo unspecified) | / | -3 | 8 | -5 | i | / | -4 | 2
COc1ccccc1C1C=C(c2ccc(Cl)cc2)Nc2nc(NS(C)(=O)=O)nn21 (stereo unspecified) | / | / | 17 | 2 | i | 0 | / | /
O=c1c2cc(-c3ccccc3)sc2nc2n1CCC2 | / | -143 | 2 | 6 | i | -2 | / | /
CSc1nc2cc(C)nn2c(-c2ccccc2)c1C#N | / | 4 | 7 | -11 | i | 4 | 0 | 0
O=C(COc1ccccc1Cl)Nc1nnc(S(=O)(=O)N2CCCCCC2)s1 | -12 | -14 | -6 | 0 | i | -1 | -1 | 0
Nc1cccc(Oc2c(F)c(F)c(Oc3cccc(N)c3)c(F)c2F)c1 | -10 | 0 | -3 | -1 | i | 60 | 4 | -3

Screening data (PubChem)

This is a subset, so the mix of outcomes need not match the whole.
